HNF4A DNA FP: change in binding of human HNF4A to DNA, primary screen, biochemical, fluorescence polarization, FITC-DNA | activity change, % at 10 µM | AID 1224865, 2016 | actives 0.3% (n = 360,000) | 1 h; in the data active = activity change above about 30%, passing the limit was not always enough;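 also: controls were the assay level and a saturating level of protein; the project sought stronger binding though the title names inhibitors; some compounds called inactive have numbers as strong as hits; positive values seem to mean higher polarization but the record does not say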
Target sequence (P41235 whole entry, looked up): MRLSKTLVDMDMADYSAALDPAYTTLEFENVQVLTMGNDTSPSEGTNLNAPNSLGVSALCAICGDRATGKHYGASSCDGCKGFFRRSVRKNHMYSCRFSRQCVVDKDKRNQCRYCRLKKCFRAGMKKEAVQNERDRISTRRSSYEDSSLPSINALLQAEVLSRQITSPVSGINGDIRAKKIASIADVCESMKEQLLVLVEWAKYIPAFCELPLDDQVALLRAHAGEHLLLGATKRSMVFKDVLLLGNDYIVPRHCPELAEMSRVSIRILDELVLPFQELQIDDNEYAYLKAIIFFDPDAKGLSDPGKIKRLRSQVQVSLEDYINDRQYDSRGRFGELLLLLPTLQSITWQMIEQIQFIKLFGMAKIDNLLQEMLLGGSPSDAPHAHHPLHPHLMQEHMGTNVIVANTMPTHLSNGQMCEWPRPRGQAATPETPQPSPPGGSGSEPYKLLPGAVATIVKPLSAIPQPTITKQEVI
ALR H2O2 inh: inhibitors of human ALR sulfhydryl oxidase, primary screen, biochemical, H2O2 detection, HRP-luminol luminescence, single point | FAD-linked sulfhydryl oxidase ALR (Homo sapiens), P55789 | purified ALR, DTT oxidation | inhibition, % (test concentration not listed) | actives 3.8% (n = 290,000) | AID 485317, 2010;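 active = mean and each replicate at 75% or more; inconclusive = only one of the two met; inactive = neither met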;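 also: stock transfer was 7.5 nL into about 7.5 µL; 0% = neutral wells and 100% = wells with inactivated enzyme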
Target sequence (P55789 whole entry, looked up): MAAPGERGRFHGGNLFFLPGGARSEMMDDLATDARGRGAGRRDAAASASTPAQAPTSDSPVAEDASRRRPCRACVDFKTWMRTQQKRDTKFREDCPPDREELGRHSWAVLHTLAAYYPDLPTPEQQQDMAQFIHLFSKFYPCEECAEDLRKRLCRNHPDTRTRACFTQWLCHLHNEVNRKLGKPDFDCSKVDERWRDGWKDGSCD
RanGTP-Imp inh: inhibitors of RanGTP-importin-beta interaction, primary screen, biochemical, FRET, CFP-Ran, YFP-importin-beta, homogeneous; Ran GTPase (GTP-bound) - importin-beta complex; cell-free CFP-Ran/YFP-importin-beta FRET ratio; inhibition, % (test concentration not listed); actives 1.1% (n = 300,000); AID 2216, 2009;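 active = most replicates above 15%; inconclusive = exactly half above 15%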;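 also: 0% = DMSO wells and 100% = Ran loaded with GDP instead of GTP; wells of about 40 µL received 100 nL stock; the first replicate is given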
LANA-H2A inh: blockers of LANA interaction with H2A/H2B – biochemical, FP readout, HTS, primary screen. Protein LANA1 (Human herpesvirus 8 type P (isolate GK18)), Q9QR71. cell-free LANA-H2A/H2B peptide, fluorescence polarization. inhibition, % (no concentration beside the values). actives 0.6% (n = 320,000). AID 2629, 2010; in the data active = inhibition mostly above about 10%, no sharp cut-off; inactive = mostly below about 6.7%;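 also: stock transfer was 7.5 nL into about 10 µL; 0% = median of vehicle wells and 100% = median of positive control wells; one replicate is shown; the record names a cut of 25% in any replicate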
Calb FLC: C. albicans growth inhibition with fluconazole, primary screen, CaCi-2 strain, Alamar Blue fluorescence; C. albicans CaCi-2 (fluconazole-resistant clinical isolate) + fluconazole, 48 h; growth inhibition, % (concentration not given with the values); actives 0.57% (n = 300,000); AID 1979, 2009;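 active = most replicates above 75%; inconclusive = exactly half above 75%; inactive = most below 75%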;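 also: all wells also contain fluconazole at 8 µg/ml as a sub-toxic cotreatment; 0% = median of DMSO wells and 100% = median of geldanamycin control wells; wells of about 8 µL received 7.5 nL stock; the first replicate is given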
Vif TR-FRET: inhibitors of Vif binding to APOBEC3G peptide, primary screen, biochemical, TR-FRET, GST-Vif 1-94, biotin-A3G peptide, dose response retest (AID 1117319); Virion infectivity factor (Human immunodeficiency virus type 1 group M subtype B (isolate …; TR-FRET GST-Vif / biotin-A3G peptide binding; higher % means a stronger effect; test concentration not given here; strong numbers were not always called active; inhibition, %, or IC50 in µM where a hit was titrated; actives 0.57% (n = 260,000);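 active = above the screen mean plus three standard deviations and confirmed in dose response; inconclusive = results disagree or hit not tested in dose response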;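 also: Vif residues 1-94 fused to GST binding biotinylated APOBEC3G peptide 110-148; 0% = full assay without inhibitor and 100% = GST in place of GST-Vif; retest series ran down from 100 µM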
Beta2AR agonist: beta2AR agonists driving receptor internalization, primary screen, cell-based, FAP fluorogen, flow cytometry; Beta-2 adrenergic receptor (Homo sapiens), P07550; Am2.2-beta2AR cells; reference of the scale not given here; response, % (no concentration beside the values); actives 0.43% (n = 340,000); AID 504454, 2011;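 active = response above a set limit, near 3 SD of response in nonfluorescent compounds, cut at about 42% in these data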;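 also: stock transfer was 100 nL into about 11 µL; a reference agonist was the positive control; negative values mostly stem from fluorescent compounds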
Target sequence (P07550 whole entry, looked up): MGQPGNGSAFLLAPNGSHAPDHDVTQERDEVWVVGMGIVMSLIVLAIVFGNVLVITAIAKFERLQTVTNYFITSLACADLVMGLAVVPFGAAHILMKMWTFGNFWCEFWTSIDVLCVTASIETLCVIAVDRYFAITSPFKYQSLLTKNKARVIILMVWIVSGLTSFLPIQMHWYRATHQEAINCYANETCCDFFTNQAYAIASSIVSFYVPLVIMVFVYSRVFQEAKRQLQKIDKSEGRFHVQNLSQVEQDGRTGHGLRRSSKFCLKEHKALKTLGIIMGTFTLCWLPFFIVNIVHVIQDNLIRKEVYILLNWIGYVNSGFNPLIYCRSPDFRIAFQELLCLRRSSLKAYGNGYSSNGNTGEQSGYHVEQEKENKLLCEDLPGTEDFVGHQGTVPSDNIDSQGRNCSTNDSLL
* hit, by the source's call.

What do the screens show for `O=C(Nc1nnc(C2=COCCO2)o1)c1ccc(Cl)cc1`?
HNF4A DNA FP: -2.5; ALR H2O2 inh: inconclusive; RanGTP-Imp inh: -1.1; LANA-H2A inh: -2.0; Calb FLC: inconclusive; Vif TR-FRET: 3%; Beta2AR agonist: -8

What do the screens show for `O=C(Nc1cccc(-c2cccc(F)c2)c1)C1CCN(Cc2ccc(CO)o2)CC1`?
HNF4A DNA FP: 3.8; ALR H2O2 inh: -14; RanGTP-Imp inh: -0.2; LANA-H2A inh: -1.2; Calb FLC: -2; Beta2AR agonist: 13

What do the screens show for `O=C(CN1C(=O)NC2(CCCCCC2)C1=O)Nc1ccc(Br)cc1Br`?
HNF4A DNA FP: -0.7; ALR H2O2 inh: 0; LANA-H2A inh: -2.1; Vif TR-FRET: 5%; Beta2AR agonist: -2

How did Cc1cc(N2CCN(c3ccccc3)CC2)nc(-c2ccccc2)n1 do in these assays?
HNF4A DNA FP: 2.7; ALR H2O2 inh: 2; RanGTP-Imp inh: 7.2; LANA-H2A inh: 2.0; Calb FLC: 19; Vif TR-FRET: -1%; Beta2AR agonist: 5

How did CN(CCNC(=O)Cn1c(=O)sc2ccccc21)Cc1ccccc1 do in these assays?
HNF4A DNA FP: 1.2; ALR H2O2 inh: 5; RanGTP-Imp inh: 1.9; LANA-H2A inh: -5.9; Calb FLC: -3; Vif TR-FRET: 1%; Beta2AR agonist: 0

How did CCOc1ccc2c(c1)S/C(=C\c1cccs1)C(=O)N2 do in these assays?
HNF4A DNA FP: 7.9; ALR H2O2 inh: -4; RanGTP-Imp inh: -9.6; LANA-H2A inh: -3.6; Calb FLC: -3; Vif TR-FRET: inconclusive; Beta2AR agonist: -10

How did Cc1cc(C)c(C#N)c(=N)o1 do in these assays?
HNF4A DNA FP: -2.1; ALR H2O2 inh: -5; RanGTP-Imp inh: -0.1; LANA-H2A inh: 7.5; Calb FLC: 0; Vif TR-FRET: -4%; Beta2AR agonist: 1

What do the screens show for `CC(CSc1n[nH]c(=S)s1)c1ccccc1` (stereo not given)?
HNF4A DNA FP: 0.0; Vif TR-FRET: 3%; Beta2AR agonist: 11

How did CN(C)N=Nc1ccc(-c2cn(Cc3ccccc3)cn2)cc1 do in these assays?
HNF4A DNA FP: -2.6; ALR H2O2 inh: 1; RanGTP-Imp inh: 2.8; LANA-H2A inh: 0.4; Calb FLC: -11; Beta2AR agonist: 22

Results for C=CC(=O)Nc1ccc(Br)cc1 ?
HNF4A DNA FP: 3.0; ALR H2O2 inh: -8; RanGTP-Imp inh: -0.9; LANA-H2A inh: 3.8; Calb FLC: 0; Vif TR-FRET: 0%; Beta2AR agonist: -5

Results for CCC1CCCCN1CCCNC(=O)CN1C(=O)COc2ccc(S(=O)(=O)N3CCC(C)CC3)cc21 (stereo not given) ?
HNF4A DNA FP: 1.0; ALR H2O2 inh: -3; RanGTP-Imp inh: -0.9; LANA-H2A inh: 3.8; Calb FLC: -2; Beta2AR agonist: -2

How did C1CCc2nnc(C3CC3)n2CC1 do in these assays?
HNF4A DNA FP: -2.4; ALR H2O2 inh: 7; RanGTP-Imp inh: -2.9; LANA-H2A inh: 7.7; Calb FLC: -3; Vif TR-FRET: -5%; Beta2AR agonist: -7

What do the screens show for `Cc1cc(SCC(=O)c2cccs2)nc2ccccc12`?
HNF4A DNA FP: 1.8; ALR H2O2 inh: 7; RanGTP-Imp inh: inconclusive; LANA-H2A inh: -2.3; Calb FLC: -3; Beta2AR agonist: 2

Results for O=C(c1ccco1)n1nc(-c2ccccc2)nc1NCc1ccco1 ?
HNF4A DNA FP: -1.6; ALR H2O2 inh: 78*; RanGTP-Imp inh: -2.4; LANA-H2A inh: -2.9; Calb FLC: -5; Vif TR-FRET: 16%; Beta2AR agonist: -7

What do the screens show for `CCNC(=S)N(Cc1cc2cc(C)cc(C)c2[nH]c1=O)C1CCCC1`?
HNF4A DNA FP: 3.0; ALR H2O2 inh: -7; RanGTP-Imp inh: 0.7; LANA-H2A inh: -3.6; Calb FLC: 19; Beta2AR agonist: -1

What do the screens show for `CCOc1ccc(C2C(C(=O)OC)=CN(C(C)c3ccccc3)C=C2C(=O)OC)cc1` (stereo not given)?
HNF4A DNA FP: 2.0; RanGTP-Imp inh: 8.0; LANA-H2A inh: 4.9; Calb FLC: -13; Beta2AR agonist: 2

Results for COCCn1c(CN2CCN(C(=O)c3ccco3)CC2)nc2c1c(=O)n(C)c(=O)n2C ?
HNF4A DNA FP: 0.6; ALR H2O2 inh: -1; RanGTP-Imp inh: 4.9; LANA-H2A inh: -3.8; Calb FLC: -3; Beta2AR agonist: 7

How did CCC(CC)C(=O)NCCc1cc2ccc(C)cc2[nH]c1=O do in these assays?
HNF4A DNA FP: -1.8; RanGTP-Imp inh: 0.0; LANA-H2A inh: -3.1; Calb FLC: -2; Vif TR-FRET: 4%; Beta2AR agonist: 5

What do the screens show for `Cc1ccc(OCCN2C(=O)c3ccccc3C2=O)c([N+](=O)[O-])c1`?
HNF4A DNA FP: 2.9; ALR H2O2 inh: 8; RanGTP-Imp inh: 0.8; LANA-H2A inh: -6.6; Calb FLC: 18; Vif TR-FRET: 7%; Beta2AR agonist: -31

Results for CC(C)[C@H](NC(=O)N1CCn2c1nc1ccccc12)C(=O)NCc1ccccc1Cl ?
HNF4A DNA FP: 0.5; ALR H2O2 inh: 1; RanGTP-Imp inh: 4.3; LANA-H2A inh: 10; Calb FLC: -12; Vif TR-FRET: -2%; Beta2AR agonist: -6

Results for CC(C)=CCc1c(C)nc2ccccc2c1C(=O)O ?
HNF4A DNA FP: -2.8; ALR H2O2 inh: -5; RanGTP-Imp inh: 7.9; LANA-H2A inh: 2.4; Calb FLC: -3; Vif TR-FRET: 0%; Beta2AR agonist: -7

Results for O=c1c(-c2ccc3c(c2)OCCO3)coc2c(CN3CCOCC3)c(O)ccc12 ?
HNF4A DNA FP: -1.3; ALR H2O2 inh: 0; RanGTP-Imp inh: -1.9; LANA-H2A inh: 3.7; Calb FLC: inconclusive; Vif TR-FRET: -5%; Beta2AR agonist: -21

How did O=C(Nc1nccs1)NC1CCCCC1 do in these assays?
HNF4A DNA FP: -3.8; ALR H2O2 inh: 75; RanGTP-Imp inh: -2.5; LANA-H2A inh: 0.6; Calb FLC: 13; Vif TR-FRET: 0%; Beta2AR agonist: -1

How did O=C(NCCc1ccccc1)C1CCN(c2ncccn2)CC1 do in these assays?
HNF4A DNA FP: 2.8; ALR H2O2 inh: 1; RanGTP-Imp inh: 2.7; LANA-H2A inh: 1.4; Calb FLC: 20; Vif TR-FRET: -4%; Beta2AR agonist: -3

Results for Cc1scc(C(=O)N/N=C/c2ccco2)c1C ?
HNF4A DNA FP: 0.0; RanGTP-Imp inh: 2.9; LANA-H2A inh: -2.8; Calb FLC: -8; Beta2AR agonist: -8

How did Cc1ccc(SCc2noc(C(=O)NC(C)C)c2C(=O)O)cc1C do in these assays?
HNF4A DNA FP: 2.5; ALR H2O2 inh: 96*; RanGTP-Imp inh: 0.0; LANA-H2A inh: -2.0; Calb FLC: -3; Vif TR-FRET: 3%; Beta2AR agonist: 6

How did CC(=O)C1=C(C)Nc2ncnn2C1c1cccc(O)c1 (stereo not given) do in these assays?
HNF4A DNA FP: -0.5; ALR H2O2 inh: 23; RanGTP-Imp inh: -3.5; LANA-H2A inh: 0.2; Calb FLC: -2; Vif TR-FRET: -6%; Beta2AR agonist: -4

How did Cc1ccccc1C(=O)NC1CCSC1=O (stereo not given) do in these assays?
HNF4A DNA FP: 0.3; ALR H2O2 inh: -11; RanGTP-Imp inh: -4.4; LANA-H2A inh: 2.7; Calb FLC: -8; Vif TR-FRET: inconclusive; Beta2AR agonist: 16

How did CNC(=O)Cn1c(=O)n(C)c2ccccc21 do in these assays?
HNF4A DNA FP: 4.4; ALR H2O2 inh: -3; RanGTP-Imp inh: -0.4; LANA-H2A inh: 5.1; Calb FLC: -2; Vif TR-FRET: 0%; Beta2AR agonist: -5

Results for COc1ccc(/C=C2\C(=O)NCC(=O)N2Cc2ccccc2)cc1 ?
HNF4A DNA FP: -0.5; ALR H2O2 inh: -8; RanGTP-Imp inh: -0.5; LANA-H2A inh: 2.5; Calb FLC: 1; Vif TR-FRET: -2%; Beta2AR agonist: -8

Results for Cc1cc(C)c(S(=O)(=O)Nc2c(C)n(C)n(-c3ccccc3)c2=O)cc1[N+](=O)[O-] ?
HNF4A DNA FP: -0.8; ALR H2O2 inh: -1; RanGTP-Imp inh: -1.0; LANA-H2A inh: 4.1; Calb FLC: -3; Vif TR-FRET: 2%; Beta2AR agonist: -2

Results for CCOC(=O)Nc1ccc(C)cc1C ?
HNF4A DNA FP: -0.6; ALR H2O2 inh: -1; RanGTP-Imp inh: 2.9; LANA-H2A inh: -29; Calb FLC: 3; Vif TR-FRET: 13%; Beta2AR agonist: -9

Results for COc1ccccc1CNc1cc(C)ccn1 ?
HNF4A DNA FP: 4.4; RanGTP-Imp inh: 1.6; LANA-H2A inh: 2.9; Calb FLC: -4; Beta2AR agonist: -16

How did CCCn1nc(C(=O)NNC(=O)c2cccc(C)c2)c2ccccc2c1=O do in these assays?
HNF4A DNA FP: -3.0; ALR H2O2 inh: -3; LANA-H2A inh: 6.0; Vif TR-FRET: -2%; Beta2AR agonist: -2

Results for Cc1ccccc1CN(C)Cc1cc(=O)oc2c(C)c(C)ccc12 ?
HNF4A DNA FP: 1.0; ALR H2O2 inh: -2; RanGTP-Imp inh: 3.7; LANA-H2A inh: 0.2; Calb FLC: 9; Beta2AR agonist: 4

What do the screens show for `CC(C)(C)OC(=O)C[C@@H]1C/C=C\C[C@H](CC(=O)NCCO)C(=O)N[C@@H](Cc2ccccc2)COC1=O`?
HNF4A DNA FP: 2.4; ALR H2O2 inh: 4; LANA-H2A inh: 6.8; Beta2AR agonist: 3

How did C=CCn1c(=O)c2ccccc2n2c(SCc3nc4ccccc4s3)nnc12 do in these assays?
HNF4A DNA FP: 3.3; ALR H2O2 inh: -40; RanGTP-Imp inh: 5.7; LANA-H2A inh: -0.1; Calb FLC: 8; Vif TR-FRET: 1%; Beta2AR agonist: -12

How did COc1cc(NS(=O)(=O)c2ccc(NC(=O)CSC3=NCCS3)cc2)nc(OC)n1 do in these assays?
ALR H2O2 inh: 99*; RanGTP-Imp inh: 0.4; LANA-H2A inh: -0.8; Calb FLC: -4; Vif TR-FRET: 7%

Results for NC(=O)CSc1nnc(-c2ccco2)n1N ?
HNF4A DNA FP: -1.8; ALR H2O2 inh: -11; RanGTP-Imp inh: 0.5; LANA-H2A inh: -4.5; Calb FLC: 11; Vif TR-FRET: 6%; Beta2AR agonist: 1

How did COc1ccc(-n2c(SC)nc(O)cc2=O)cc1 do in these assays?
HNF4A DNA FP: -2.3; ALR H2O2 inh: 1; RanGTP-Imp inh: -0.8; LANA-H2A inh: 0.0; Calb FLC: 22; Vif TR-FRET: 19%; Beta2AR agonist: 1

How did Cc1cc(C)c2nc(Cl)c(Cl)nc2c1 do in these assays?
HNF4A DNA FP: -1.6; RanGTP-Imp inh: -2.1; LANA-H2A inh: 6.5; Calb FLC: -7; Beta2AR agonist: 2

Results for CCN(CC)C(=O)CN1CCC(c2nc3cc(C)c(C)cc3[nH]2)CC1 ?
HNF4A DNA FP: -3.1; ALR H2O2 inh: -5; RanGTP-Imp inh: -7.2; LANA-H2A inh: -1.5; Calb FLC: -3; Beta2AR agonist: 5

Screening results deposited in PubChem by several laboratories.
